PrP UTR inh – inhibition of PrP 5' UTR reporter expression. cell-based PrP 5' UTR mRNA reporter, plate reader. inhibition, % (test concentration not listed). actives 0.35% (n = 340,000);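 active = every replicate at 50% or more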;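 note: 0 = median of the neutral control wells; tested in H4 reporter cells; numbers are from one replicate; inactives centre near -14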
Sa ugtP lethal – compounds lethal to S. aureus RN4220 ugtP deletion mutant; actives 0.54% (n = 330,000); OD600 growth, 16 h; some inactives read as strong as hits; growth inhibition, % (test concentration not listed);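 active = z-score under -3 and OD600 up to 0.15 on both plates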;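 note: plate controls were untreated wells for no effect and antibiotic for full effect; wells of about 80 µL received 100 nL stock; the first replicate is given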
Mtb hypoxia inh – Mtb hypoxia fluorescent reporter inhibition | M. tuberculosis hypoxia-regulated fluorescent reporter, fluorescence | fluorescence inhibition, % (test concentration not listed) | AID 1159583 | actives 0.1% (n = 300,000);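 active = 35 to 45% if threefold the growth effect, above 45% if 1.5-fold the growth effect; inactive = the rest, general growth blockers included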;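 note: wells of about 50 µL received 100 nL stock; 0% = vehicle wells and 100% = reference inhibitor wells; whole bacteria with a GFP reporter of the hypoxia response; strong numbers were not always called active; many hits fall short of the cut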
Bead autofluor – counter-screen for toxin protease inhibitors: compound fluorescence; compound autofluorescence counterscreen, microsphere flow cytometry; stronger effect = higher value; fluorescence intensity (no concentration beside the values); actives 3.1% (n = 360,000);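 active = at least 3 SD above the mean of all compounds, about 16000 in these data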;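 note: 100 nL of 1 mM stock went into each well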
BJeLR lethal – BJeLR cell viability loss. BJeLR (HRASV12) viability, CellTiter-Glo ATP luminescence, 48 h; reference of the scale not given here. inhibition, % (concentration not given with the values). actives 0.17% (n = 300,000). AID 1554;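 active = replicate mean above 50%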;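 note: 50 nL library stock added to about 25 µL; numbers are from one replicate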
RN4220 kill – S. aureus RN4220 growth inhibition; OD600, 16 h; inhibition, % (test concentration not listed); actives 0.33% (n = 330,000); AID 1259311;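 active = z-score of -3 or lower and OD600 up to 0.18 on both plates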;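 note: plate controls were untreated cells for no effect and reference antibiotic for full effect; stock transfer was 100 nL into about 80 µL; one replicate is shown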
Mtb hypoxia inh growth – recorded beside Mtb hypoxia inh, whose call it bears; growth inhibition, %; measured here: M. tuberculosis growth (absorbance);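 0% = vehicle and 100% = reference antibiotic; read after six days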
* = called active by the depositor; & = joins results of further samples. Rows were taken by chance. About 4.1% of those tested had a hit in this group.

How did O=C(Nc1nnc(Cc2ccccc2)s1)c1cccs1 do in these assays?
PrP UTR inh: -69; Sa ugtP lethal: -17; Mtb hypoxia inh: 0; Bead autofluor: 3157; BJeLR lethal: 4; RN4220 kill: -9.8; Mtb hypoxia inh growth: 10

What do the screens show for `CCN(CC(=O)NCc1ccc(F)cc1)C(=O)/C=C/c1ccco1`?
PrP UTR inh: -27; Sa ugtP lethal: 10; Mtb hypoxia inh: 14; Bead autofluor: 4855; BJeLR lethal: -5; RN4220 kill: 0.8; Mtb hypoxia inh growth: 2

What do the screens show for `CCNc1nc(NC(C)C)nc(Oc2ccc(OCc3ccccc3)nn2)n1`?
PrP UTR inh: -7; Sa ugtP lethal: 3; Mtb hypoxia inh: 5; Bead autofluor: 3861; BJeLR lethal: -5; RN4220 kill: 2.1; Mtb hypoxia inh growth: 5

What do the screens show for `COc1ccc(C(=O)CSc2nc(-c3ccccn3)nc(C)c2Cl)cc1`?
PrP UTR inh: 2; Sa ugtP lethal: -9; Mtb hypoxia inh: 2; BJeLR lethal: -6; RN4220 kill: 2.4; Mtb hypoxia inh growth: 1

How did CC(=NNC(=O)C1CC1(C)c1ccccc1)c1ccco1 (configuration not stated) do in these assays?
Sa ugtP lethal: 15; Mtb hypoxia inh: 11; RN4220 kill: 7.0; Mtb hypoxia inh growth: 7

Results for O=C(CS(=O)(=O)Cc1ccccc1)Nc1ccccn1 ?
PrP UTR inh: -12; Sa ugtP lethal: 3; BJeLR lethal: 4; RN4220 kill: 1.2

How did Cc1ccc(NS(=O)(=O)c2ccc(NC(=O)CN(c3cc([N+](=O)[O-])ccc3C)S(C)(=O)=O)cc2)c(C)c1 do in these assays?
PrP UTR inh: -23; Sa ugtP lethal: 19; Mtb hypoxia inh: 1; Bead autofluor: 10918; BJeLR lethal: 65*; RN4220 kill: -2.5; Mtb hypoxia inh growth: 1

Results for CCN(C[C@H]1N[C@@](CC)(C(=O)OC)[C@H]2C(=O)N(Cc3ccccc3)C(=O)[C@@H]12)C(=O)Nc1ccc(Cl)cc1 ?
PrP UTR inh: -23; Sa ugtP lethal: -1; Mtb hypoxia inh: 2; Bead autofluor: 3391; RN4220 kill: 1.5; Mtb hypoxia inh growth: 8

How did Cc1ccccc1N1C(=O)C(Oc2ccc(Cl)cc2)C1CNCC1CCCO1 (configuration not stated) do in these assays?
PrP UTR inh: -9; Sa ugtP lethal: 11; Mtb hypoxia inh: 1; Bead autofluor: 2046; BJeLR lethal: 2; RN4220 kill: 2.0; Mtb hypoxia inh growth: 10

How did CCc1cccc2c(C(=S)N3CCOCC3)c[nH]c12 do in these assays?
PrP UTR inh: -4; Sa ugtP lethal: -11; Mtb hypoxia inh: -2; Bead autofluor: 2141; BJeLR lethal: -4; RN4220 kill: 12; Mtb hypoxia inh growth: -6

Results for CCN(CC)S(=O)(=O)c1cc(C(=O)NCCN2CCOCC2)ccc1Cl ?
PrP UTR inh: 3; Sa ugtP lethal: 5; Mtb hypoxia inh: 19; Bead autofluor: 4143; BJeLR lethal: -2; RN4220 kill: 9.7; Mtb hypoxia inh growth: 7

Results for Cc1ccccc1OCC(=O)Nc1c2c(nn1C(C)(C)C)CS(=O)(=O)C2 ?
PrP UTR inh: -16; Sa ugtP lethal: 11; Mtb hypoxia inh: 5; Bead autofluor: 4645; BJeLR lethal: 5; RN4220 kill: 3.1; Mtb hypoxia inh growth: -8

How did CCCCNC(=O)CN1C(=O)CN=C(c2ccccc2)c2ccccc21 do in these assays?
PrP UTR inh: -1; Sa ugtP lethal: 19; Mtb hypoxia inh: 4; Bead autofluor: 6485; BJeLR lethal: 17; RN4220 kill: 4.4; Mtb hypoxia inh growth: 7

How did c1ccc(CCNc2nc(-c3ccncc3)cs2)cc1 do in these assays?
PrP UTR inh: -17; Sa ugtP lethal: 3; Mtb hypoxia inh: 10; Bead autofluor: 3807; BJeLR lethal: 9; RN4220 kill: 13; Mtb hypoxia inh growth: 15

Results for COc1cc(C=O)ccc1OS(=O)(=O)c1ccccc1[N+](=O)[O-] ?
PrP UTR inh: -3; Sa ugtP lethal: 2; Mtb hypoxia inh: 1; Bead autofluor: 2514; BJeLR lethal: -4; RN4220 kill: 3.3; Mtb hypoxia inh growth: 6

Structures above with a nitro group on carbon, in the order listed:
How did Cc1ccc(NS(=O)(=O)c2ccc(NC(=O)CN(c3cc([N+](=O)[O-])ccc3C)S(C)(=O)=O)cc2)c(C)c1 do in these assays?
PrP UTR inh: -23; Sa ugtP lethal: 19; Mtb hypoxia inh: 1; Bead autofluor: 10918; BJeLR lethal: 65*; RN4220 kill: -2.5; Mtb hypoxia inh growth: 1

Results for COc1cc(C=O)ccc1OS(=O)(=O)c1ccccc1[N+](=O)[O-] ?
PrP UTR inh: -3; Sa ugtP lethal: 2; Mtb hypoxia inh: 1; Bead autofluor: 2514; BJeLR lethal: -4; RN4220 kill: 3.3; Mtb hypoxia inh growth: 6

The listing continues:
What do the screens show for `CC(C)Sc1cc(N2CCCC2)nc(-c2ccccc2)n1`?
PrP UTR inh: -10; Sa ugtP lethal: 41; Mtb hypoxia inh: 2; Bead autofluor: 2773; BJeLR lethal: -3; RN4220 kill: -5.2; Mtb hypoxia inh growth: 6

How did CC(C)(C)c1ccc(C(=O)NNc2cc(N3CCCCC3)nc(N3CCCCC3)n2)cc1 do in these assays?
PrP UTR inh: -6; Sa ugtP lethal: 38; Mtb hypoxia inh: 0; Bead autofluor: 7914; BJeLR lethal: 6; RN4220 kill: -8.1; Mtb hypoxia inh growth: -2

Results for COc1ccc(CN2C(=O)C(CC(C)C)Nc3ncnc(N4CCN(c5ccccc5)CC4)c32)cc1 (configuration not stated) ?
PrP UTR inh: -35; Sa ugtP lethal: 4; Mtb hypoxia inh: -7; Bead autofluor: 3307&6417; BJeLR lethal: -8; RN4220 kill: 1.2; Mtb hypoxia inh growth: 2

What do the screens show for `Cn1c(SC(C(=O)Nc2ccc(F)cc2)c2ccccc2)nc2ccccc21` (configuration not stated)?
PrP UTR inh: -26; Sa ugtP lethal: -12; Mtb hypoxia inh: 1; Bead autofluor: 2618; BJeLR lethal: 6; RN4220 kill: -3.2; Mtb hypoxia inh growth: -2

How did CC(=O)c1cccc(CN2CCCC(C(=O)c3ccc4c(c3)OCO4)C2)c1 (configuration not stated) do in these assays?
PrP UTR inh: -11; Sa ugtP lethal: 18; Mtb hypoxia inh: -9; Bead autofluor: 5367; BJeLR lethal: -6; RN4220 kill: 4.5; Mtb hypoxia inh growth: -7

Results for COC(=O)/C=C/C(=O)Nc1ccc(O)c(Cl)c1 ?
PrP UTR inh: -17; Sa ugtP lethal: -4; Mtb hypoxia inh: 22; Bead autofluor: 2695; BJeLR lethal: 7; RN4220 kill: 3.7; Mtb hypoxia inh growth: 12

What do the screens show for `COc1ccc(NC(=O)Cn2c(=O)oc3cc(S(=O)(=O)N4CCCC4)ccc32)cc1`?
PrP UTR inh: 2; Sa ugtP lethal: 5; Mtb hypoxia inh: 7; Bead autofluor: 5791; BJeLR lethal: -3; RN4220 kill: 4.7; Mtb hypoxia inh growth: 2

What do the screens show for `CC(C)(C)OC(=O)NC(CO)c1cn(C(Cc2cc3ccccc3[nH]2)C(=O)N2CCN(C(=O)OC(C)(C)C)CC2)nn1` (configuration not stated)?
Sa ugtP lethal: -4; Mtb hypoxia inh: -3; RN4220 kill: 0.4; Mtb hypoxia inh growth: 0

How did CN(C)/C=C/C(=O)c1ccccc1OCc1cnc(Cl)s1 do in these assays?
PrP UTR inh: 2; Sa ugtP lethal: -16; Mtb hypoxia inh: -2; Bead autofluor: 4155; BJeLR lethal: -4; RN4220 kill: -4.9; Mtb hypoxia inh growth: -6

How did CNS(=O)(=O)c1cccc(C(=O)NNC(=O)c2ccc(COc3ccccc3)cc2)c1 do in these assays?
PrP UTR inh: -5; Sa ugtP lethal: -7; Mtb hypoxia inh: -3; Bead autofluor: 5565; BJeLR lethal: -3; RN4220 kill: 9.5; Mtb hypoxia inh growth: -7

How did COc1ccc(C)cc1NC(=O)CCC(=O)Nc1nnc(C(F)(F)F)s1 do in these assays?
PrP UTR inh: -15; Sa ugtP lethal: 15; Mtb hypoxia inh: 4; Bead autofluor: 15498; BJeLR lethal: 13; RN4220 kill: 6.7; Mtb hypoxia inh growth: 2

How did O=C(NN=Cc1ccc(O)c2ncccc12)c1cccc(Br)c1 do in these assays?
Sa ugtP lethal: -15; Mtb hypoxia inh: 20; RN4220 kill: 14; Mtb hypoxia inh growth: -3

How did CCCC1C2C(=O)N(c3ccc(OC)cc3)C(=O)C2ON1c1ccccc1 (configuration not stated) do in these assays?
PrP UTR inh: -7; Sa ugtP lethal: 5; Mtb hypoxia inh: 6; Bead autofluor: 6546; BJeLR lethal: -9; RN4220 kill: -0.5; Mtb hypoxia inh growth: 8

Results for CCN1CCN(Cc2ccc(NC(=O)c3cc(NC(=O)c4cc(-c5ccc(OC)cc5)n[nH]4)cc(OC)c3)cc2C(F)(F)F)CC1 ?
PrP UTR inh: -20; Sa ugtP lethal: 55; Mtb hypoxia inh: -3; Bead autofluor: 4160; BJeLR lethal: 15; RN4220 kill: 57; Mtb hypoxia inh growth: 21

How did ON=C(CCc1ccccc1)c1ccccc1 do in these assays?
Sa ugtP lethal: 21; Mtb hypoxia inh: 1; Bead autofluor: 3438; RN4220 kill: 7.7; Mtb hypoxia inh growth: 7

What do the screens show for `CCN(CC)S(=O)(=O)c1ccc(N2CCOCC2)c(NC(=O)C2=COCCO2)c1`?
PrP UTR inh: -5; Sa ugtP lethal: 6; Mtb hypoxia inh: -5; Bead autofluor: 4477; BJeLR lethal: 9; RN4220 kill: 4.5; Mtb hypoxia inh growth: -6

Results for Cc1ccc(NC(=O)Cn2c(=O)n(CCCC(=O)NCc3ccco3)c(=O)c3ccccc32)cc1 ?
PrP UTR inh: -9; Sa ugtP lethal: 7; Bead autofluor: 2790; BJeLR lethal: 23; RN4220 kill: 0.4

Results for Cc1ccc(C=NNc2cccc(C(=O)O)c2)s1 ?
Sa ugtP lethal: 1; Mtb hypoxia inh: 10; RN4220 kill: 3.3; Mtb hypoxia inh growth: 5

Results for Cn1c(SCC(=O)N2CCCc3ccccc32)nc2cccnc21 ?
PrP UTR inh: -11; Sa ugtP lethal: 5; Bead autofluor: 3637; BJeLR lethal: -5; RN4220 kill: -1.2

How did CC(C)(C)c1ccc(C=NNC(=S)Nc2cccnc2)cc1 do in these assays?
Sa ugtP lethal: 5; Mtb hypoxia inh: -8; RN4220 kill: 1.2; Mtb hypoxia inh growth: 7

How did Nc1nc(SCc2cccc(Br)c2)n[nH]1 do in these assays?
PrP UTR inh: -11; Sa ugtP lethal: 5; Mtb hypoxia inh: 2; Bead autofluor: 3679; BJeLR lethal: -4; RN4220 kill: 2.4; Mtb hypoxia inh growth: 4

What do the screens show for `Cc1cc(O)c2c(c1)C(=O)[C@@]13Oc4c5c(c(O)c6c(O)cc(C)cc46)C(=O)C[C@H](O)[C@H]5[C@@H]1[C@@H](O)CC(=O)C3=C2O`?
PrP UTR inh: -18; Sa ugtP lethal: 16; Bead autofluor: 5324; RN4220 kill: 43

What do the screens show for `CCCCNC(=O)c1ccc(Cn2c(=S)[nH]c3c([nH]c4ccc(OC)cc43)c2=O)cc1`?
PrP UTR inh: -32; Sa ugtP lethal: 1; Mtb hypoxia inh: -12; Bead autofluor: 2616; BJeLR lethal: 6; RN4220 kill: 6.4; Mtb hypoxia inh growth: 0

What do the screens show for `O=C(O)c1ccc(CNCc2ccc(Cl)cc2Cl)cc1`?
PrP UTR inh: -12; Sa ugtP lethal: 2; Bead autofluor: 2716; BJeLR lethal: 6; RN4220 kill: 2.8

Ordered by heavy-atom count (smallest number first): part of the list above.
What do the screens show for `O=C(O)c1ccc(CNCc2ccc(Cl)cc2Cl)cc1`?
PrP UTR inh: -12; Sa ugtP lethal: 2; Bead autofluor: 2716; BJeLR lethal: 6; RN4220 kill: 2.8

What do the screens show for `CCN(CC)S(=O)(=O)c1ccc(N2CCOCC2)c(NC(=O)C2=COCCO2)c1`?
PrP UTR inh: -5; Sa ugtP lethal: 6; Mtb hypoxia inh: -5; Bead autofluor: 4477; BJeLR lethal: 9; RN4220 kill: 4.5; Mtb hypoxia inh growth: -6

Results for Cc1ccc(NC(=O)Cn2c(=O)n(CCCC(=O)NCc3ccco3)c(=O)c3ccccc32)cc1 ?
PrP UTR inh: -9; Sa ugtP lethal: 7; Bead autofluor: 2790; BJeLR lethal: 23; RN4220 kill: 0.4

Screening data from PubChem.
